# D2 PAM = positive allosteric modulators of human D2 dopamine receptor; DiscoveRx D2 beta-arrestin cells, luminescence, 90 min; 100% = 57 uM dopamine signal; potentiation, % (test concentration not listed); actives 0.23% (n = 360,000); active = potentiation of 50% or more; inconclusive = 30% to 50%; inactive = 30% or less;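 note: compound concentration not given in the record; tested on top of an EC20 dose of dopamine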
# Target sequence (P14416 whole entry, looked up): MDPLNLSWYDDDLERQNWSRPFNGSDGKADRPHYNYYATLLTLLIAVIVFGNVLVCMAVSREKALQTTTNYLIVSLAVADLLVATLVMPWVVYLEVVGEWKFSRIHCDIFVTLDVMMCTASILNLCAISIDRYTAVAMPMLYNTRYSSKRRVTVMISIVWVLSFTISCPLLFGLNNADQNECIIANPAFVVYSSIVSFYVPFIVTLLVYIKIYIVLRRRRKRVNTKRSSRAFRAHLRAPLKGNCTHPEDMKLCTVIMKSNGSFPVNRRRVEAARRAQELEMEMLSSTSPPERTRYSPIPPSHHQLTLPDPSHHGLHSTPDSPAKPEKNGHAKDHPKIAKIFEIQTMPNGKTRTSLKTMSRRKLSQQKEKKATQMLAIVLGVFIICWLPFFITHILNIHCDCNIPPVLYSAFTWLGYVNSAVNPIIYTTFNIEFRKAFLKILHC
#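 D2 cells co-treated with compound plus 50 nM dopamine (EC20) for 90 min at 37 deg C to detect potentiation. Beta-arrestin recruitment was read as enzyme-fragment luminescence after 1 h at ambient temperature. Full response was set by 57 uM dopamine.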
# D2 ag = agonists of human D2 dopamine receptor (beta-arrestin); activation, % (no concentration beside the values); AID 624465; actives 0.084% (n = 360,000); P14416; DiscoveRx PathHunter D2 beta-arrestin, luminescence, 90 min; 100% = 57 uM dopamine signal; in the data active = activation above about 40%; inconclusive = about 15% to 40%; inactive = below about 15%; note: compound concentration not given in the record; the text of the record calls up to 30% inactive
#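 Agonist mode: compounds alone added to overnight-plated D2 PathHunter cells for 90 min at 37 C, with 57 uM final dopamine (EC100) defining full response. Beta-arrestin recruitment detected by chemiluminescent reagent, read after 1 h at ambient temperature.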
# TRPML1 ag = agonists of human TRPML1 channel; Q9GZU1; TRPML1-expressing cells, Ca2+ dye fluorescence, FDSS; host cell line not named in the record; reference of the full effect not given here; activation, % (no concentration beside the values); actives 0.12% (n = 410,000); AID 624414; in the data active = activation above about 50%; inconclusive = about 30% to 50%; inactive = below about 30%; note: 0% is about no effect; the text of the record puts the active cut at 80%
# Target sequence (Q9GZU1 whole entry, looked up): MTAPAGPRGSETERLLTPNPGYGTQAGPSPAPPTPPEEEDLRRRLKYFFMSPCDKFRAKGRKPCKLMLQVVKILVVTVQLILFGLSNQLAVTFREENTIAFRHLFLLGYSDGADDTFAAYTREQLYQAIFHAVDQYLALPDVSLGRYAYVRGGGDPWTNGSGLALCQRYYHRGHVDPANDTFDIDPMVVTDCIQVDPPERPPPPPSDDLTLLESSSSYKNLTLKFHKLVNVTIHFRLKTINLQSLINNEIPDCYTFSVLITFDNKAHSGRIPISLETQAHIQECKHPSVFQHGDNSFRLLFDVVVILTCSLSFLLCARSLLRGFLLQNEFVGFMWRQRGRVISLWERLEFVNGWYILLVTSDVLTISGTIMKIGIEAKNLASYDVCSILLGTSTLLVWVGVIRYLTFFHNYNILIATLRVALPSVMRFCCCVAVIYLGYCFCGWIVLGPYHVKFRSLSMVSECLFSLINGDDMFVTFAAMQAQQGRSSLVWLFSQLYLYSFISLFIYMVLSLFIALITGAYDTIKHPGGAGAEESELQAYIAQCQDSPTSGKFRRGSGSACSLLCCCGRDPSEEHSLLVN
#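 Calcium fluorescence on an FDSS kinetic reader gave the read-out. Tet-induced TRPML1-DL cells were plated overnight, dye-loaded (Ca8 with quencher, 45-90 min, room temperature, dark), then read 110 s after compound addition, and again 110 s after 4uM final 54-4 (EC80).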
# PINK1 expr mod = modulators of PINK1 expression. actives 0.2% (n = 410,000). Potency, µM (doses to about 76.6 µM), without a hit: at the highest dose activation (PINK1 increase), hits mostly activators. PINK1 immunofluorescence, high-content cytometry, 24 h. AID 624263; active = well fitted activation curve with a large enough effect; inconclusive = small, poorly fitted or top-dose-only effect; inactive = flat fitted curve, though single readings scatter; cell line not stated here;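 note: potency is the fitted concentration of half-maximal effect; % of control where 0% means no effect; nearly all actives have a fitted effect of over 65% in size; a mitochondrial uncoupler was the plate control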
#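 PINK1 protein, normally rapidly degraded, was detected by immunofluorescence after 24 hour compound treatment of a stable cell line. Titration data (5 concentrations) came from laser-scanning cytometry, with CCCP-treated wells as controls.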
# TRPML1 inh = blocks the human TRPML1 channel. AID 624415. Q9GZU1. actives 0.02% (n = 390,000). activity change, negative = inhibition, % (no concentration beside the values). TRPML1-inducible cells, Ca2+ dye fluorescence, FDSS; stronger effect = lower value; inhibition of EC80 agonist-evoked calcium signal; in the data active means activity change below about -50%; inconclusive means about -30% to -50%; inactive means above about -30%;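 note: stimulus is agonist 54-4 at its EC80 concentration; % is set by controls: 0 for no effect and ±100 for the full control effect; compound concentration not given in the record; the text of the record puts the active cut at -80%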
#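 TRPML1-DL cells, Tet-induced overnight (~16 h, 37 °C) at 1,500 cells/well, were loaded with Ca8 no-wash dye plus quencher for 45-90 min at room temperature. Compounds were pinned during FDSS kinetic reading; agonist 54-4 at EC80 (4 uM final) then added.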
# Six1-Eya2 inh = inhibitors of human Six1/Eya2 interaction. Q15475+O00167. AlphaScreen GST-Six1/His-Eya2 binding, biochemical; stronger effect = lower value; control for the full effect not named in the record. activity change, % (concentration not given with the values). actives 0.56% (n = 360,000); in the data active = activity change below about -65%; inconclusive = about -30% to -65%; inactive = above about -30%; note: % is set by controls: 0 for no effect and ±100 for the full control effect
#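 GST-Six1 + His-Eya2 (5X stock: 250/500 nM); Tris pH 8.0, 300 mM NaCl, 0.05% BSA, 0.02% Tween 20; GSH donor/Ni acceptor beads; 1 h 37 °C dark; AlphaScreen readout.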
# * hit, by the source's call; ? = inconclusive; nt = not tested or not shown; [ ] = dose if it differs, or a comment.
1) O=C(NC1CCN(Cc2ccccc2)CC1)c1ccc(Oc2cc(Cl)cc(Cl)c2)o1
2) COCCn1nnnc1C(c1cccs1)N1CCN(c2cccc(C(F)(F)F)c2)CC1 (configuration not stated)
3) Cc1cccc(NC(=O)CNC(=O)CN2C(=O)NC3(CCCc4ccccc43)C2=O)c1C (configuration not stated)
4) CC(OC(=O)c1ccc2c(=O)n3c(nc2c1)CCCCC3)C(=O)Nc1ccc(F)cc1Cl (configuration not stated)
5) COc1ccc(NC(=S)N2CCC(C(=O)c3ccc(F)cc3)CC2)c(OC)c1
6) O=C(NCC(c1ccco1)N1CCc2ccccc21)c1cccc(F)c1 (configuration not stated)
7) CNC(=O)c1sc2nc(-c3ccc(OC)cc3)cn2c1C
8) Cc1cc2nc(-c3ccccc3Br)n(/C=C(\c3ccccc3)n3c(=O)[nH]c4ccccc43)c2cc1C
screen / no.,1,2,3,4,5,6,7,8
D2 PAM,-33,16,-3,8,-33,-6,1,-5
D2 ag,-3.8,-3.1,-2.4,-0.9,-0.3,-1.5,-5.1,-5.0
TRPML1 ag,-0.7,26,0.1,-0.1,1.8,1.2,-0.1,0.0
PINK1 expr mod,5.2%,-0.1%,-0.6%,-2.1%,-0.7%,0.5%,-1.3%,2.8%
TRPML1 inh,20,-14,0,15,-7,-21,-14,nt
Six1-Eya2 inh,-4,-2,5,-6,-9,-9,-4,6

9) CCOc1ccccc1N(CC(=O)Nc1ccc(S(=O)(=O)N2CCCC2)cc1)S(C)(=O)=O
10) CCOC(=O)C1=NN(c2ccccc2C)C2=NC(C)=C(C(=O)OC)C(c3cccc(OC)c3)N12 (configuration not stated)
11) Cc1ccc(S(=O)(=O)NCCSc2nncn2C)cc1
12) CCOc1ccc(CCNC(=O)CCc2nc(-c3ccc(C)cc3)no2)cc1OCC
13) CC1=C(C(=O)N2CCOCC2)CC(CC(=O)NCC2CCCCC2)C(=O)N1Cc1ccccc1 (configuration not stated)
14) COc1ccc(OC)c(NC(=O)c2c(NCc3sccc3C)sc3c2CCCCC3)c1
15) CCc1cccc(C)c1NC(=S)NCC(c1cccnc1)N(C)C (configuration not stated)
16) O=C(Nc1ccccc1)c1ccc(S(=O)(=O)Nc2cccc(O)c2)cc1
screen / no.,9,10,11,12,13,14,15,16
D2 PAM,-8,-9,-4,-4,4,nt,-13,-7
D2 ag,-1.1,2.9,0.9,-0.6,-3.1,nt,-3.7,-0.8
TRPML1 ag,-0.7,2.9,-0.8,1.1,-0.7,-0.7,1.5,-0.5
PINK1 expr mod,-0.5%,5.7%,0.5%,16%,1.7%,2.8%,0.2%,4.7%
TRPML1 inh,-3,-2,19,3,5,-7,-16,10
Six1-Eya2 inh,3,4,3,15,5,nt,16,-1

17) CC1(C)CC(=O)C2=C(C1)OC(N)=C([N+](=O)[O-])C2c1cccs1 (configuration not stated)
18) CCCCCC(O)c1cccc(OCc2ccc3ccccc3n2)c1 (configuration not stated)
19) CCOc1cccc2sc(N(CCN(CC)CC)C(=O)c3ccc(S(=O)(=O)N4CCCCC4)cc3)nc12
20) CCCCC1Cc2[nH]c(=S)[nH]c(=O)c2C(C(C)C)O1 (configuration not stated)
21) O=C(O)CSCC(=O)N1CCCCC1
22) CCc1ccc(S(=O)(=O)c2cn(C)c3cc(N4CCN(CC)CC4)c(F)cc3c2=O)cc1
23) N#C/C(=N\Nc1ccccc1[N+](=O)[O-])C(=N)N1CCCCC1
24) Cc1nc2c(cnn2-c2ccccc2)c(=O)n1/N=C/c1ccccc1
screen / no.,17,18,19,20,21,22,23,24
D2 PAM,-6,-1,-8,nt,-15,nt,-12,-5
D2 ag,-1.1,7.2,-5.0,nt,-1.9,nt,-4.8,-4.7
TRPML1 ag,-0.1,0.7,0.5,-0.8,0.2,0.0,0.2,-0.4
PINK1 expr mod,1.9%,?,3.1%,0.6%,0.1%,0.5%,1.3%,8.4%
TRPML1 inh,1,-12,-20,nt,-6,-20,9,-7
Six1-Eya2 inh,-1,2,22,7,-14,nt,-10,-2

# Values in list order from the entries so far.
# TRPML1 inh for entries 17–24: 1, -12, -20, nt, -6, -20, 9, -7
# D2 ag for entries 17–24: -1.1, 7.2, -5.0, nt, -1.9, nt, -4.8, -4.7
# TRPML1 ag for entries 17–24: -0.1, 0.7, 0.5, -0.8, 0.2, 0.0, 0.2, -0.4

# Limited to TRPML1 ag, Six1-Eya2 inh and PINK1 expr mod (3 entries from above):
entry	structure	TRPML1 ag	Six1-Eya2 inh	PINK1 expr mod
8	Cc1cc2nc(-c3ccccc3Br)n(/C=C(\c3ccccc3)n3c(=O)[nH]c4ccccc43)c2cc1C	0.0	6	2.8%
9	CCOc1ccccc1N(CC(=O)Nc1ccc(S(=O)(=O)N2CCCC2)cc1)S(C)(=O)=O	-0.7	3	-0.5%
10	CCOC(=O)C1=NN(c2ccccc2C)C2=NC(C)=C(C(=O)OC)C(c3cccc(OC)c3)N12 (configuration not stated)	2.9	4	5.7%

# (listing goes on)
25) CC(Cc1cccs1)NC(=S)Nc1ccc(F)cc1 (configuration not stated)
26) CCC1(CC)C(=O)C(C)(C)C(=O)OC1c1ccccn1 (configuration not stated)
27) COc1ccc2c(c1)cc(C(=O)N[C@@H](CCSC)C(=O)N1CCC[C@H]1C(=O)O)n2C
28) Cc1cccc(CNC(=O)C2CCC(=O)N(CC3CCCCC3)C2)c1 (configuration not stated)
29) CC(C)C(C(=O)NCC1CCCO1)N(C(=O)CNS(=O)(=O)c1ccc(F)cc1)c1ccccc1 (configuration not stated)
30) Cc1cc2nnc(SCc3ccc(F)cc3)n2c2ccccc12
31) CCOC(=O)C1=NOC2(C1)C(=O)Nc1ccc(OC(F)(F)F)cc12 (configuration not stated)
32) CCCCNC(=S)Nc1cccc(S(=O)(=O)NC2=NCCC2)c1
screen / no.,25,26,27,28,29,30,31,32
D2 PAM,1,-13,9,-9,-1,nt,nt,-32
D2 ag,-3.0,-0.2,-4.0,-2.3,-2.5,nt,nt,-4.3
TRPML1 ag,-0.5,-0.8,nt,-0.5,-0.2,3.5,-0.6,1.7
PINK1 expr mod,3.4%,-1.2%,0.3%,1.5%,1.1%,-1.2%,4.5%,-0.4%
TRPML1 inh,16,6,nt,-11,-3,12,nt,-8
Six1-Eya2 inh,2,2,-16,2,-3,nt,-7,1

33) CCn1c(SCC(=O)NNC(=O)c2ccc(C)cc2)nnc1C1CC1
34) COc1cccc(NS(=O)(=O)c2c(C)cc(C)cc2C)c1
35) N=c1sccn1CC(=O)Nc1ccccc1Oc1ccccc1
36) Cc1ccc(C(=O)NN2C(=O)/C(=C/c3cccn3C)SC2=S)cc1
37) COc1ccc(-c2c(C#Cc3ccsc3)c3cc(-c4ccc(CN5CCOCC5)cc4)ccc3n2C)cc1
38) O=C(NCCc1ccc(Cl)cc1)C1CCCN1C(=O)NCc1ccccc1 (configuration not stated)
39) Cc1ccnc(NC(=O)Cc2ccc(-c3ccccc3)cc2)c1
40) CCOc1ccc(CCNC(=O)c2ccc(C)c(S(=O)(=O)N3CCOCC3)c2)cc1OCC
screen / no.,33,34,35,36,37,38,39,40
D2 PAM,-6,5,-5,-17,-13,-5,1,-3
D2 ag,-4.4,2.6,-3.6,-10,-2.8,8.0,3.7,1.4
TRPML1 ag,-0.3,1.4,1.1,1.8,1.5,-1.1,0.1,2.0
PINK1 expr mod,-3.3%,0.6%[38.3 µM],-0.9%,-0.3%,0.3%,-1.1%,7.2%,1.7%
TRPML1 inh,-14,37,5,23,1,44,0,40
Six1-Eya2 inh,-1,-2,6,-69*,-7,-7,9,2

# Ordered by length of the SMILES (low to high): 3 of the compounds above.
33) CCn1c(SCC(=O)NNC(=O)c2ccc(C)cc2)nnc1C1CC1
36) Cc1ccc(C(=O)NN2C(=O)/C(=C/c3cccn3C)SC2=S)cc1
37) COc1ccc(-c2c(C#Cc3ccsc3)c3cc(-c4ccc(CN5CCOCC5)cc4)ccc3n2C)cc1
screen / no.,33,36,37
D2 PAM,-6,-17,-13
D2 ag,-4.4,-10,-2.8
TRPML1 ag,-0.3,1.8,1.5
PINK1 expr mod,-3.3%,-0.3%,0.3%
TRPML1 inh,-14,23,1
Six1-Eya2 inh,-1,-69*,-7

# Remaining list, next part.
41) O=C1CCCC2=C1C(c1ccc(Cl)cc1)n1c(s/c(=C\c3ccc4ccncc4c3)c1=O)=N2 (configuration not stated)
42) CCCNC(=O)c1ccc2c(=O)c(O)c(-c3ccc(OC)cc3)[nH]c2c1
43) CN(C)C(=O)CCc1ccc2c3c([nH]c2c1)[C@]1(CCC2CCCC2)[C@@H](C(=O)N2CCOCC2)C[C@H](CC(=O)NCCN2CCOCC2)C(=O)N1CC3
44) Cc1nc(-c2ccc(F)cc2)sc1CCNC(=O)c1cccs1
45) CCOc1cc(C(C(=O)NCC2CCCO2)N(C(=O)Cn2nnc3ccccc32)c2ccccc2C(C)=O)ccc1O (configuration not stated)
46) CSc1ccccc1NC(=O)c1ccccc1N(Cc1ccccc1)S(C)(=O)=O
47) CN1C(=O)CC(N2CCC(C(N)=O)CC2)C1=O (configuration not stated)
48) CCOC(=O)c1ccc(S(=O)(=O)NCCNCc2ccccc2)cc1
screen / no.,41,42,43,44,45,46,47,48
D2 PAM,2,-2,-9,nt,-3,-3,-2,-15
D2 ag,-1.8,0.1,-1.4,nt,2.4,-5.4,-5.3,-0.4
TRPML1 ag,0.2,-0.5,0.4,0.4,-0.1,2.7,0.0,5.7
PINK1 expr mod,-0.6%,1.4%,1.6%,-0.5%,1.5%,0.6%[38.3 µM],-0.3%,-2.1%
TRPML1 inh,6,-19,-15,-15,11,15,-6,-1
Six1-Eya2 inh,2,-5,0,nt,9,2,-4,-15

49) CC(NC(=O)c1cccc2c1Oc1ccccc1S2)C(=O)O (configuration not stated)
50) COc1ccc(CCNC(=O)C2CCC(=O)N(CCc3ccc(OC)cc3)C2)cc1 (configuration not stated)
51) Cc1ccc(NC(=S)N(N)CCO)cc1
52) COc1ccc(NC(=O)CNCCC2=CCCCC2)cc1
53) O=C1CCc2cc(S(=O)(=O)Nc3ccccc3F)cc3c2N1CCC3
54) Cc1ccc(N(CC(=O)NCc2ccc(OC(C)C)cc2)S(=O)(=O)N(C)C)cc1
55) COc1ccc(/C=C2/C(=N)N3C(=NC2=O)Sc2cc(S(C)(=O)=O)ccc23)cc1OC
56) COC(=O)c1ccc(COc2ccc(/C=N/N3CCN(C)CC3)cc2)cc1
57) CCN1CCC(N2CCN(c3ccccc3OC)CC2)CC1
58) O=C(CCC(=O)c1cccs1)NNC(=O)c1cc(Cl)ccc1Cl
59) O=C(NCc1cccnc1)c1nn(-c2ccccc2F)nc1CO
screen / no.,49,50,51,52,53,54,55,56,57,58,59
D2 PAM,3,-9,1,-31,1,nt,-13,-4,-10,-3,nt
D2 ag,-1.8,-2.6,1.3,-1.9,-0.6,nt,-3.0,0.3,-1.0,1.6,nt
TRPML1 ag,-0.5,-1.2,1.6,0.3,0.1,3.1,0.1,-0.8,0.6,0.2,2.4
PINK1 expr mod,1.2%,-1.1%,-1.9%,-1.0%[38.3 µM],8.0%,1.6%,-1.4%,-1.3%,-1.0%,-1.5%,-0.3%
TRPML1 inh,nt,5,-14,-3,13,-9,9,2,29,-4,22
Six1-Eya2 inh,?,1,2,0,-2,nt,2,-3,-3,4,nt

# Assay outcomes from PubChem BioAssay.
